Source: PubChem BioAssay
T cruzi inh: T. cruzi replication inhibition | T. cruzi beta-gal in NIH3T3, luminescence, 90 h | inhibition, % (no concentration beside the values) | hit rate 1.4% among 300,000;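 active = mean inhibition across valid replicates above about 55%, limit read from the data; inconclusive = mean below that limit but half or more replicates reach it; inactive = mean below it, under half of replicates reach it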;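 also: signal also drops with host cell toxicity which is not excluded here; 0% = plate median of DMSO wells and 100% = zero luminescence signal; higher percent means less beta-gal luminescence so fewer parasites; stock transfer was 50 nL into about 50 µL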
Beta cell apopt: beta cell apoptosis inhibition; INS-1E cytokine-induced death, ATP luminescence, 48 h; percent of positive-control rescue, neutral wells zero; protection from apoptosis, % (no concentration beside the values); hit rate 0.8% among 300,000;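 active = all replicates at 75% or more, or half of them and the mean; inconclusive = half reach 75% but not the mean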;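 also: 0% = cytokine-treated negative control wells and 100% = positive control rescue; higher means more ATP so stronger rescue from cytokine killing; wells of about 40 µL received 100 nL stock; the first replicate is given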
B2AR ag: activates human beta-2 adrenergic receptor causing internalization; P07550; Am2.2-beta2AR cells, FAP receptor internalization, flow cytometry; reference of the scale not given here; response, % (no concentration beside the values); hit rate 0.43% among 340,000;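 active = response above a set limit, near 3 SD of response in nonfluorescent compounds, cut at about 42% in these data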;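 also: stock transfer was 100 nL into about 11 µL; a reference agonist was the positive control; negative values mostly stem from fluorescent compounds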
Target sequence (P07550 whole entry, looked up): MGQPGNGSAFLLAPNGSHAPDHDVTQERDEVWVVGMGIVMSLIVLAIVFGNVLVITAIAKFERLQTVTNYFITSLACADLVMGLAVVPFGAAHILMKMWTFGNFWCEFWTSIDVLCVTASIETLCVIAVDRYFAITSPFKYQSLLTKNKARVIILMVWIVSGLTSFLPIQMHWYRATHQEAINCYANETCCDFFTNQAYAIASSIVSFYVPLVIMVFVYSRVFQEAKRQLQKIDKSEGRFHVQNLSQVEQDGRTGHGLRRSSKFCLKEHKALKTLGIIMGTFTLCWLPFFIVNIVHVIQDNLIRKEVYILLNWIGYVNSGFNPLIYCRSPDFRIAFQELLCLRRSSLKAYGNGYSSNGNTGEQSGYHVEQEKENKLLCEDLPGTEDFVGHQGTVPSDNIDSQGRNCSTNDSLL
Calb FLC: affects C. albicans growth with fluconazole | growth inhibition, % (concentration not given with the values) | hit rate 0.57% among 300,000 | AID 1979 | C. albicans CaCi-2 (fluconazole-resistant clinical isolate) + fluconazole, Alamar Blue growth, 48 h;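 active = most replicates above 75%; inconclusive = exactly half above 75%; inactive = most below 75%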;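 also: all wells also contain fluconazole at 8 µg/ml as a sub-toxic cotreatment; 0% = median of DMSO wells and 100% = median of geldanamycin control wells; wells of about 8 µL received 7.5 nL stock; the first replicate is given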
ALR inh: human ALR oxidase inhibition via reduced H2O2 | inhibition, % (no concentration beside the values) | purified ALR, DTT oxidation, H2O2 HRP-luminol luminescence | AID 485317 | hit rate 3.8% among 290,000;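 active = mean and each replicate at 75% or more; inconclusive = only one of the two met; inactive = neither met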;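 also: stock transfer was 7.5 nL into about 7.5 µL; 0% = neutral wells and 100% = wells with inactivated enzyme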
Target sequence (P55789 whole entry, looked up): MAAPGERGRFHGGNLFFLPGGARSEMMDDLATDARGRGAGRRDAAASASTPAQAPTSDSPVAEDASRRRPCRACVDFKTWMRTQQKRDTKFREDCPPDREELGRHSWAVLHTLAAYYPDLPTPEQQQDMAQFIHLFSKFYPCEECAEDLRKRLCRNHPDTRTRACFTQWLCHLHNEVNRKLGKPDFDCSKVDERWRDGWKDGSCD
A1 inh: inhibitors of the anti-apoptotic protein A1, read as caspase activation; MEF A1-2A-BIM cells, Caspase-Glo 3/7 luminescence, 3 h; percent of clofoctol response, vehicle zero; caspase activation, % (concentration not given with the values); hit rate 0.066% among 330,000;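 active = over half of replicate activation scores above 10%, or exactly half above 10 with the replicate mean above 10; inconclusive = replicate mean below 10 yet half the replicates above 10; inactive = over half of replicates below 10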;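 also: wells of about 30 µL received 50 nL stock; many hits fall short of the cut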
LANA-H2B inh: blocks KSHV LANA binding to histone H2A/H2B | Q9QR71 | cell-free LANA-H2A/H2B peptide, fluorescence polarization | inhibition, % (test concentration not listed) | hit rate 0.6% among 320,000 | AID 2629; in the data active = inhibition mostly above about 10%, no sharp cut-off; inactive = mostly below about 6.7%;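 also: stock transfer was 7.5 nL into about 10 µL; 0% = median of vehicle wells and 100% = median of positive control wells; one replicate is shown; the record names a cut of 25% in any replicate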
rRNA inh HTS: selective bacterial rRNA inhibition in E. coli. E. coli WT GFP vs humanized-ribosome RFP mutants, fluorescence, 24 h; hits give low values; DMSO median 0, no signal -100. GFP signal change (wild-type ribosome), % (concentration not given with the values). hit rate 1.6% among 350,000;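 active = significant combined selectivity score with lowered wild-type GFP, culture density cut under 30%, mutant RFP and density less affected; inactive = any of these conditions unmet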; also: one replicate is shown; some compounds called inactive have numbers as strong as hits
rRNA inh HTS OD600: recorded beside rRNA inh HTS, whose call it bears; OD600 change, %; measured here: OD600 growth;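 optical density of the mix in the first replicate; 0 = DMSO median and -100 = no signal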
rRNA inh HTS RFP: also measured in rRNA inh HTS; calls as there; RFP signal change, %; measured here: RFP humanized mutant strains;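 first replicate; 0 = DMSO median and -100 = no signal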
An asterisk follows results filed as active; ? = inconclusive; / = no result given; & = joins results of further samples. Only part of the results is shown; rates above refer to the full screens.

no.	canonical_smiles	T cruzi inh	B2AR ag	ALR inh	Calb FLC	rRNA inh HTS	rRNA inh HTS OD600	Beta cell apopt	rRNA inh HTS RFP	LANA-H2B inh	A1 inh
1	Cc1c(C)n(Cc2ccccc2)c2ccc(C(=O)OCCCN(C)C)cc12	61*	16	-2	-1	-57	-79	13	-22	-1.2	0.9
2	Nc1nnc(SCC(=O)Nc2cccc3ccccc23)s1	-10	-3	/	1	8	12	3	-0.2	0.0	0.1
3	CC(=O)c1ccc(N2CCN(CC(O)COC(c3ccccc3)c3ccccc3)CC2)cc1 (stereo unspecified)	10	-2	-5	4	-31	-69	5	7.8	-3.6	0.1
4	Cn1nc(C(F)(F)F)c(-c2ccc(Br)cc2)c1NC(=O)CSCC(=O)O	-4	-2	-1	-3	3	-6	-11	-1.2	1.3	-0.5
5	C/C(N)=C(/C#N)C(=O)CSc1nnc(COc2ccccc2Cl)o1	26	1&-4	-2	-11	6	1	-1	2.8	2.2	1.9
6	CC(=O)c1cc2c(cc1NC(=O)c1cnc(C)cn1)OCO2	3	-4	-8	-18	/	/	5	/	-1.4	0.0
7	CCc1cc(=O)oc2cc(C)cc(O)c12	0	4	6	0	-3	-25	-5	-3.8	0.8	-0.3
8	Cc1cccc(C)c1NC(=O)C1c2ccccc2Oc2ccccc21	-10	2	-2	-4	/	/	-4	/	3.0	0.3
9	Cc1ccc(C2C(C#N)=C(N)N(c3cccnc3)C3=C2C(=O)CCC3)s1 (stereo unspecified)	-19	0	/	10	18	6	0	2.8	-4.4	0.6
10	COc1ccc(/C(C)=N/NC(=O)CNC(=O)C(c2ccccc2)c2ccccc2)c(OC)c1	-7	-2	-1	?	-1	-12	4	2.1	-0.3	-0.1
11	CCOC(=O)C1=C(N)OC2=C(C(=O)CC(C)(C)C2)C1c1ccccc1OCC#N (stereo unspecified)	-3	-1	1	26	/	/	-6	/	2.8	/
12	COCCCNC(=O)C(=O)NC1CCCCCC1	-10	2	-2	-5	10	5	-4	4.8	0.0	0.9
13	Cc1ccccc1NC(=O)Nc1ccc(C(F)(F)F)cc1	17	9	-22	-10	/	/	34	/	-1.0	-2.5
14	O=C(CCN1C(=O)c2ccccc2C1=O)Nc1ccc(S(=O)(=O)NC2=NCCCCC2)cc1	/	-1	19	/	/	/	1	/	-0.8	0.4
15	Cn1c(=O)cc(N2CCCCC2)[nH]c1=O	-15	-3	8	-2	10	3	-2	3.0	3.8	0.9
16	Cc1csc(NC(=O)C2CCCN(S(=O)(=O)c3ccc(Br)s3)C2)n1 (stereo unspecified)	-4	3	-1	23	/	/	1	/	-0.8	-0.4
17	Cc1cc(=O)n(CC=C(Cl)Cl)c2ccccc12	9	-6	/	-10	/	/	-9	/	-0.6	0.2
18	Cc1ccc(S(=O)(=O)N2CCC(C(=O)OCc3c(C)noc3C)CC2)cc1C	1	1	-18	5	-11	-14	-7	4.5	0.5	0.3
19	CCN(CC)CC(=O)Nc1ccc(C)cc1Br	3	5	-1	1	/	/	/	/	-2.8	0.5
20	CCC(C)(C)NC(=O)Nc1cc(Cl)ccc1OC	6	4	-11	-7	3	-1	3	0.0	-2.9	-0.2
21	Cc1cc(NS(=O)(=O)c2ccc(NC(=O)C(CC(C)C)N3C(=O)c4ccccc4C3=O)cc2)nc(C)n1 (stereo unspecified)	-1	13	9	-1	/	/	-3	/	5.8	-0.1
22	Cc1c(C2(O)CCCCC2)[nH]c2ccc(C(F)(F)F)cc12	/	1	-1	/	-40	-73	5	-3.7	1.3	-1.3
23	O=c1oc(-c2ccc([N+](=O)[O-])cc2)nc2ccc(O)cc12	-10	-8	4	6	12	12	-3	-1.4	-1.3	-7.3
24	COc1cc(C(=O)Nc2nnc(SCC(=O)NCC3CCCO3)s2)cc(OC)c1OC (stereo unspecified)	-2	4	-4	-1	-3	-4	-3	-0.3	8.2	-0.2
25	O=C(COC(=O)CSc1ccc(Cl)cc1)Nc1ccc2[nH]c(=O)[nH]c2c1	/	1	/	/	6	10	0	2.7	-2.4	-1.3
26	Nc1cc(=O)n(Cc2ccccc2)c(=O)n1-c1ccc(Cl)cc1	13	-8	-4	10	/	/	-29	/	5.4	-0.6
27	O=C(CCNC(=O)c1ccc(Cl)cc1)Nc1nc2ccccc2[nH]1	/	-9	-11	/	9	9	2	0.0	-1.0	0.9
28	C=CC[N+]1(CC#CCOC(c2ccccc2)c2ccccc2)CCOCC1	-3	-14	-4	-13	/	/	2	/	0.3	0.6
29	O=C(O)CC(CC(=O)N1CCOCC1)c1ccccc1 (stereo unspecified)	-5	-3	/	-13	7	7	/	-2.1	4.2	-0.1
30	Nc1nc(Nc2ccccc2Cl)cc(=O)[nH]1	6	-3	/	1	2	5	-6	3.3	-1.6	0.1
31	COc1ccc(/C=N/Nc2nc(=O)[nH]nc2C)cc1[N+](=O)[O-]	-11	-2	15	-15	/	/	4	/	6.4	-5.2
32	O=C(CSc1ncn[nH]1)Nc1ccccc1Sc1ccc(Cl)cc1	-6	1	27	4	/	/	-7	/	-1.8	0.0
33	COC(=O)c1ccc(NC(=O)C(=O)N2CCN(C(=S)NCCc3ccccc3)CC2)cc1	1	3	-5	3	/	/	0	/	1.6	1.0
34	CCCOc1cccc(C2C(C(=O)c3ccco3)=C(O)C(=O)N2CCN(CC)CC)c1 (stereo unspecified)	11	-5	2	2	/	/	-1	/	-0.1	-1.3
35	COc1ccccc1NC(=O)CON=C(N)CC(=O)NC1CCCCC1	/	-124	-2	/	10	4	-4	1.4	-2.8	-2.0
36	O=C(NCc1ccco1)C(c1ccccc1)N(C(=O)Cc1cccs1)c1ccccc1 (stereo unspecified)	3	0	0	-2	/	/	-2	/	4.0	-0.8
37	CC(C)(C)c1ccc(NC(=O)C(=O)C2C(=O)Nc3ccccc32)cc1 (stereo unspecified)	-4	0	-10	30	-3	1	9	0.3	2.2	-0.4
38	Cc1ccc(N=Nc2ccc(C)cc2NC(=O)Nc2ccccc2F)cc1	9	-9	-2	-4	6	18	22	-1.3	0.9	-1.2
39	Cc1ccc(-n2nnc(-c3nccn3C)n2)cc1	-9	-19	1	-14	5	9	7	-0.7	6.2	-7.1
40	Cn1c(NNC(=O)c2ccccc2F)cc(=O)n(C)c1=O	2	-7	/	-2	10	5	-4	-3.7	-1.0	0.2
41	COc1ccc(S(=O)(=O)N2CCN(CC(=O)Nc3cccc(F)c3)CC2)cc1	3	-4	0	-2	/	/	-1	/	-1.8	1.0
42	CCc1ccc(NC(=O)C(=O)N/N=C(\C)CC(=O)NCCOC)cc1	-1	0	/	40	18	20	-4	2.2	-3.4	-0.4
43	CCCCc1nc2cc(C(=O)NCc3cn(C)nc3C)ccc2o1	-27	1	1	-16	-5	-9	2	-1.8	-0.9	-0.3
44	Cc1cccc(C(=S)N2CCOCC2)n1	/	-3	/	/	3	10	-4	-3.3	-3.2	-0.7
45	Cc1ccc([N+](=O)[O-])cc1S(=O)(=O)Nc1ccc(C(=O)N2CCN(C(=O)c3ccco3)CC2)cc1	/	-5	/	/	0	9	1	-3.6	16*	-1.0
46	CC(C)(C)N(NC(=O)OCc1ccccc1)C(=O)c1ccccc1Cl	-18	4	-5	-32	2	6	-3	-5.0	-2.8	-0.5
47	CC(C)Cn1c(SCC#N)nc2ccccc2c1=O	-2	-3	0	8	/	/	3	/	-2.1	0.1
48	O=C(Nc1ccc(-c2nnc(-c3ccco3)o2)cc1)C(c1ccccc1)c1ccccc1	13	5	-3	-1	11	13	8	-0.7	3.0	-0.8
49	CCN(CC)c1cc(Cl)nc(N)n1	3	4	2	3	16	2	7	-3.7	0.5	0.8
50	CCNC(=O)NC(=O)C(C)OC(=O)Cc1coc2cc3c(cc12)CCC3 (stereo unspecified)	-4	-4	-2	-8	14	22	-2	3.4	-0.8	-1.0

(continued)
no.	canonical_smiles	T cruzi inh	B2AR ag	ALR inh	Calb FLC	rRNA inh HTS	rRNA inh HTS OD600	Beta cell apopt	rRNA inh HTS RFP	LANA-H2B inh	A1 inh
51	CCOC(=O)c1[nH]ncc1CN1CCCC(C(=O)c2cc(Cl)ccc2OC)C1 (stereo unspecified)	7	1	44	10	/	/	-2	/	-6.0	0.1
52	Cc1ccc(-n2[nH]c(C)c(C=Nc3ccc4[nH]c(=O)[nH]c4c3)c2=O)cc1C	3	8	92*	-1	/	/	43	/	-0.5	-4.2
53	COCCN1C(=O)c2ccccc2C(C(=O)NCCN(C)C)C1c1ccc(F)cc1 (stereo unspecified)	-17	2	1	-9	/	/	-3	/	-1.1	-0.4
54	Cc1ccc(Nc2n[nH]c(C)c2[N+](=O)[O-])cc1	-24	6	70	-7	/	/	11	/	1.1	-2.2
55	CCCc1cc(=O)oc2cc(OCC(=O)N3CCOCC3)c(Cl)cc12	-8	-22	/	12	-5	-4	-6	-4.3	3.7	-0.7
56	Cc1ccc(NC(=O)Nc2cnccn2)c(C)c1	7	11	-4	2	9	12	-1	-1.0	-1.3	-1.1
57	Cc1ccc(S(=O)(=O)N/N=C\C=C\c2ccccc2)cc1	-20	4	20	-14	0	-4	-22	3.2	-1.4	0.0
58	C#CCOCCOCCOCCNc1nc(N2CCN(C(=O)C([C@@H](C)CC)n3cc(C(N)Cc4ccc(O)cc4)nn3)CC2)nc(N2CCN(C(=O)[C@H](CCC(=O)O)n3cc(C(N)Cc4ccc(O)cc4)nn3)CC2)n1 (stereo partly specified)	-6	-3	14	0	/	/	-8	/	3.0	-1.3
59	Cc1ccc(NC(=O)C2CCN(C(=O)[C@@H]3Cc4ccccc4CN3)CC2)c(C)c1	-5	0	1	/	5	11	1	-1.1	-4.6	0.2
